# From PubChem BioAssay
# CHT block: inhibits the human high affinity choline transporter; Q9GZV3; CHT-expressing cells, membrane potential dye, choline response; hits give low values; B-score at 10 µM; hit rate 0.86% among 310,000; AID 488975;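 active = B-score over 3 SD under the library average, and starting fluorescence ratio not unusually high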;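 also: choline stimulus applied at its EC90 after an EC20 pre-addition; B-score computed on integrated fluorescence ratio after choline addition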
# Target sequence (Q9GZV3 whole entry, looked up): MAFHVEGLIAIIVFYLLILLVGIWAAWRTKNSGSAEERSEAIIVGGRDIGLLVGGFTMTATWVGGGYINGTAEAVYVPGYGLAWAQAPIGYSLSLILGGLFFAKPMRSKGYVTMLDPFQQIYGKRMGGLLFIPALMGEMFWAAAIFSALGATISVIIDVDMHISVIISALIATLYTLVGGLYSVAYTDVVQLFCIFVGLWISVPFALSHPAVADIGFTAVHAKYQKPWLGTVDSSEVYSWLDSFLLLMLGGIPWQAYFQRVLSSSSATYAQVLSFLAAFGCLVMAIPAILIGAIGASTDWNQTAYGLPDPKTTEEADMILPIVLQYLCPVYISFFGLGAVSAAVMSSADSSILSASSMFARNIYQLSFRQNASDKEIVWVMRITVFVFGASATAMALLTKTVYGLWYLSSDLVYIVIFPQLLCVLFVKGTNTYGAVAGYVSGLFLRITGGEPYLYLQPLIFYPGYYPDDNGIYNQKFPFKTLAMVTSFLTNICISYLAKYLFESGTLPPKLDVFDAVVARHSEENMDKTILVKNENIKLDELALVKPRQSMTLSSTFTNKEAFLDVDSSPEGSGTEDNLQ
# Calls only; i = inactive. An excerpt, and most or all hits are left out here.
CCCn1cc(C(=O)O)cn1
  CHT block: i
C[C@@]1([C@@H](NP(=O)(c2ccccc2)c2ccccc2)c2ccccc2)C[C@H]1CCO
  CHT block: i
Cc1cc(/C=C2\C(=O)NC(=O)N(c3cccc(F)c3)C2=O)c(C)n1-c1cc(C(=O)O)cc(C(=O)O)c1
  CHT block: i
CCN(CC)CCCN=Cc1c(O)n(-c2cccc(C)c2C)c(=O)[nH]c1=O
  CHT block: i
Cc1ccc(C)c(NC(=O)CSc2nnc([C@@H](N)Cc3c[nH]c4ccccc34)o2)c1
  CHT block: i
O=C(C1CCN(c2nc3ccc(Br)cc3s2)CC1)N1CCC2(CC1)OCCO2
  CHT block: i
COc1ccc(C(O)C(C)NC(C)C(O)c2ccc(OC)cc2)cc1 (stereo not drawn)
  CHT block: i
Cc1ccc2c(c1)C(c1ccccc1)=NCC(=O)N2
  CHT block: i
CC(C)OC12Oc3ccccc3C=C1N1CCC2CC1 (stereo not drawn)
  CHT block: i
CC(=O)OC1CC[C@@]2(C)C(=CC(=O)C3C4CCC(OC(C)=O)[C@@]4(C)CCC32)C1 (stereo partly drawn)
  CHT block: i
CC1(C)CN=C(Nc2ccc(F)c(Cl)c2)S1
  CHT block: i
COC(=O)C1=C(c2ccccc2)C[C@@H]2CC[C@H]1N2C(=O)NC(C)C
  CHT block: i
Cc1cc(S(=O)(=O)NC(C)C)ccc1OCC(=O)N1CCN(Cc2ccc3c(c2)OCO3)CC1
  CHT block: i
NCCCN1CCN(c2ccccc2)CC1
  CHT block: i
CC1CN(CCc2ccccc2)CC(C)O1 (stereo not drawn)
  CHT block: i

# 3 records drawn at random from the list so far, as already listed:
CC1(C)CN=C(Nc2ccc(F)c(Cl)c2)S1
  CHT block: i
Cc1cc(S(=O)(=O)NC(C)C)ccc1OCC(=O)N1CCN(Cc2ccc3c(c2)OCO3)CC1
  CHT block: i
CC1CN(CCc2ccccc2)CC(C)O1 (stereo not drawn)
  CHT block: i

# Some of the entries so far, with bars between the fields.
structure | CHT block
Cc1ccc2c(c1)C(c1ccccc1)=NCC(=O)N2 | i
CC(C)OC12Oc3ccccc3C=C1N1CCC2CC1 (stereo not drawn) | i

# Returning to the listing, repeating the 2 entries before the break.
NCCCN1CCN(c2ccccc2)CC1
  CHT block: i
CC1CN(CCc2ccccc2)CC(C)O1 (stereo not drawn)
  CHT block: i
CC(C)Sc1nnc([C@@H](N)Cc2c[nH]c3ccccc23)o1
  CHT block: i
CC1CC(OC(=O)c2ccccc2)CC(C)N1C (stereo not drawn)
  CHT block: i
CCOc1ccc(N2C(=O)/C(=C/c3ccco3)C(=O)NC2=S)cc1
  CHT block: i
Cn1c(C(=O)N2CCC(C(=O)N3CCC4(CC3)OCCO4)CC2)cc2sccc21
  CHT block: i
Cc1ccccc1-n1c(O)c(C=NCCN2CCOCC2)c(=O)[nH]c1=O
  CHT block: i
CCCCn1c(=O)c(C(=O)Nc2ccccc2C)c(O)c2ccccc21
  CHT block: i
O=c1[nH]c(=O)n(Cc2ccccc2)c(O)c1C=NCCCn1ccnc1
  CHT block: i
CC(O)(CS(=O)(=O)c1cccc(C(F)(F)F)c1)C(=O)Nc1cccc(C(F)(F)F)c1 (stereo not drawn)
  CHT block: i
CC[C@H]1CN(C)CCc2c([nH]c3ccccc23)C(=O)C[C@@H]1/C(=C\OC)C(=O)OC
  CHT block: i
COC(=O)C1=C(c2cccc(OC)c2OC)C[C@@H]2CC[C@H]1N2C(=O)NCc1ccco1
  CHT block: i
CCCCCC(=O)N[C@@H](c1ccccc1)[C@@H](O)C(=O)O[C@H]1C[C@@]2(O)[C@@H](OC(=O)c3ccccc3)C3[C@](C)(C(=O)[C@H](O)C(=C1C)C2(C)C)[C@@H](OC1OCC(O)C(O)C1O)C[C@H]1OC[C@@]31OC(C)=O (stereo partly drawn)
  CHT block: i
CCOc1ccc(Cc2c(O)[nH]c(=O)[nH]c2=O)cc1
  CHT block: i
Cn1c2ccccc2c2c(C(=O)N3CCC4(CC3)OCCO4)cn(C3CCCC3)c(=O)c21
  CHT block: i
CC(C)c1cc(Br)c(NC(=O)Nc2cccnc2)c(Br)c1
  CHT block: i
CCc1ccc(-n2c(O)c(/C=N/N3CCCCC3c3cccnc3)c(=O)[nH]c2=O)cc1 (stereo not drawn)
  CHT block: i

COc1cccc(Oc2c(C)oc3cc(OC(=O)N(C)C)ccc3c2=O)c1
  CHT block: i
COc1ccc(N2C(=O)NC(=O)/C(=C\c3ccccc3[N+](=O)[O-])C2=O)cc1
  CHT block: i
Cc1oc(-c2ccccc2)nc1CN1C(=O)CN=C(c2ccccc2)c2ccccc21
  CHT block: i
CNS(=O)(=O)c1ccc(N=Cc2c(O)n(-c3ccc(C)cc3)c(=O)[nH]c2=O)cc1
  CHT block: i
C=Cn1ccnc1P(=S)(c1nccn1C=C)C1CCCCC1
  CHT block: i
COc1ccc(-c2csc(NC(=O)COC(=O)Cc3ccccc3)n2)cc1OC
  CHT block: i
CCOC(=O)c1ccc(N2C(=O)CC(N3CC=C(c4ccc(F)cc4)CC3)C2=O)cc1 (stereo not drawn)
  CHT block: i
Clc1ccc(-c2nc3ccc(Cl)cn3c2CN2CCCCC2)cc1
  CHT block: i
CC(=O)Nc1ccc(CC(=O)N2CCN(Cc3ccccc3)CC2)cc1
  CHT block: i

# Shown comma-delimited: 4 of the compounds above
Molecule,CHT block
COc1ccc(-c2csc(NC(=O)COC(=O)Cc3ccccc3)n2)cc1OC,i
CCOC(=O)c1ccc(N2C(=O)CC(N3CC=C(c4ccc(F)cc4)CC3)C2=O)cc1 (stereo not drawn),i
Clc1ccc(-c2nc3ccc(Cl)cn3c2CN2CCCCC2)cc1,i
CC(=O)Nc1ccc(CC(=O)N2CCN(Cc3ccccc3)CC2)cc1,i
